A1 apoptosis 2: A1 inhibition read as caspase activation. 24,000 tested, under 10 active. caspase activation, % (test concentration not listed). MEF A1-2A-BIM cells, caspase-Glo luminescence, 3 h; percent of clofoctol response, DMSO zero; in the data active means caspase activation above about 5.9%;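 further: wells of about 30 µL received 50 nL stock; the first replicate is given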
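Material: A1-2A-BIM-expressing MEF cells. Buffer or medium: RPMI-1640 plus 10% FBS. Incubation: cells settled overnight, compound exposure 3 h at 37 °C, 5% CO2. Signal: Caspase-Glo 3/7 luminescence, 1 h at room temperature.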
Starred values were filed as active, the others as inactive. A portion of the library; the hit share may differ from the screen's.

The first seven records, ahead of the listing:
C[C@@H]1CCCCO[C@H](CN(C)C)[C@H](C)CN([C@H](C)CO)C(=O)c2cc(NS(=O)(=O)c3cccs3)ccc2O1
- A1 apoptosis 2: -0.2
Cc1noc(C)c1NC(=O)Nc1ccc2c(c1)C(=O)N([C@H](C)CO)C[C@@H](C)[C@@H](CN(C)S(=O)(=O)c1ccccc1)OCCCC[C@H](C)O2
- A1 apoptosis 2: 0.6
CC(C)NC(=O)N(C)C[C@H]1OCCCC[C@@H](C)Oc2ccc(NC(=O)Nc3ccccc3)cc2C(=O)N([C@H](C)CO)C[C@@H]1C
- A1 apoptosis 2: 0.2
COc1ccc(NC(=O)N(C)C[C@H]2Oc3c(NS(=O)(=O)c4ccc(OC)cc4)cccc3C(=O)N([C@H](C)CO)C[C@@H]2C)cc1
- A1 apoptosis 2: 0.4
Cc1noc(C)c1NC(=O)N(C)C[C@H]1Oc2ccc(NC(=O)NC(C)C)cc2C(=O)N([C@H](C)CO)C[C@@H]1C
- A1 apoptosis 2: -1.3
C[C@@H]1CN([C@H](C)CO)C(=O)c2cc(NC(=O)Nc3ccc(F)cc3)ccc2O[C@H]1CN(C)Cc1ccc2c(c1)OCO2
- A1 apoptosis 2: -1.0
C[C@H](CO)N1C[C@H](C)[C@@H](CN(C)C(=O)Cc2ccccc2)OCCCC[C@H](C)Oc2ccc(NC(=O)Nc3ccc(F)cc3)cc2C1=O
- A1 apoptosis 2: 0.8

The whole of this part, from the first entry:
C[C@@H]1CCCCO[C@H](CN(C)C)[C@H](C)CN([C@H](C)CO)C(=O)c2cc(NS(=O)(=O)c3cccs3)ccc2O1
- A1 apoptosis 2: -0.2
Cc1noc(C)c1NC(=O)Nc1ccc2c(c1)C(=O)N([C@H](C)CO)C[C@@H](C)[C@@H](CN(C)S(=O)(=O)c1ccccc1)OCCCC[C@H](C)O2
- A1 apoptosis 2: 0.6
CC(C)NC(=O)N(C)C[C@H]1OCCCC[C@@H](C)Oc2ccc(NC(=O)Nc3ccccc3)cc2C(=O)N([C@H](C)CO)C[C@@H]1C
- A1 apoptosis 2: 0.2
COc1ccc(NC(=O)N(C)C[C@H]2Oc3c(NS(=O)(=O)c4ccc(OC)cc4)cccc3C(=O)N([C@H](C)CO)C[C@@H]2C)cc1
- A1 apoptosis 2: 0.4
Cc1noc(C)c1NC(=O)N(C)C[C@H]1Oc2ccc(NC(=O)NC(C)C)cc2C(=O)N([C@H](C)CO)C[C@@H]1C
- A1 apoptosis 2: -1.3
C[C@@H]1CN([C@H](C)CO)C(=O)c2cc(NC(=O)Nc3ccc(F)cc3)ccc2O[C@H]1CN(C)Cc1ccc2c(c1)OCO2
- A1 apoptosis 2: -1.0
C[C@H](CO)N1C[C@H](C)[C@@H](CN(C)C(=O)Cc2ccccc2)OCCCC[C@H](C)Oc2ccc(NC(=O)Nc3ccc(F)cc3)cc2C1=O
- A1 apoptosis 2: 0.8
Cc1noc(C)c1S(=O)(=O)Nc1ccc2c(c1)C(=O)N([C@@H](C)CO)C[C@H](C)[C@@H](CN(C)C(=O)Nc1ccc(F)cc1)O2
- A1 apoptosis 2: 1.7
C[C@@H]1CN([C@H](C)CO)C(=O)Cc2cc(N(C)C)ccc2O[C@H]1CN(C)Cc1ccc(C(F)(F)F)cc1
- A1 apoptosis 2: 0.3
C[C@@H]1CN([C@@H](C)CO)C(=O)c2cc(NC(=O)C3CC3)ccc2O[C@H]1CN(C)C(=O)Nc1cccc2ccccc12
- A1 apoptosis 2: 1.3
C[C@@H]1CCCCO[C@H](CN(C)C(=O)Nc2ccc(F)cc2)[C@H](C)CN([C@@H](C)CO)C(=O)c2cc(NS(=O)(=O)c3cn(C)cn3)ccc2O1
- A1 apoptosis 2: 0.6
C[C@H]1CN([C@@H](C)CO)C(=O)c2cccc(NS(=O)(=O)c3cccs3)c2O[C@@H]1CN(C)Cc1ccc(C(=O)O)cc1
- A1 apoptosis 2: -0.6
C[C@@H]1CCCCO[C@H](CN(C)Cc2ccncc2)[C@H](C)CN([C@@H](C)CO)C(=O)c2cc(NS(=O)(=O)c3ccccc3)ccc2O1
- A1 apoptosis 2: -0.2
C[C@@H]1CCCCO[C@H](CN(C)S(=O)(=O)c2ccc(Cl)cc2)[C@@H](C)CN([C@@H](C)CO)C(=O)c2cc(NS(=O)(=O)c3cn(C)cn3)ccc2O1
- A1 apoptosis 2: 2.9
COc1ccc(S(=O)(=O)N(C)C[C@@H]2Oc3c(NC(=O)CCCCCC(=O)Nc4ccccc4N)cccc3C(=O)N([C@H](C)CO)C[C@H]2C)cc1
- A1 apoptosis 2: -1.7

C[C@H](CO)N1C[C@H](C)[C@@H](CN(C)CC2CC2)Oc2ccc(NC(=O)NC3CCCCC3)cc2CC1=O
- A1 apoptosis 2: -0.2
Cc1ccc(S(=O)(=O)N(C)C[C@@H]2Oc3ccc(NC(=O)Cc4ccccc4)cc3C(=O)N([C@@H](C)CO)C[C@H]2C)cc1
- A1 apoptosis 2: 0.0
C[C@@H]1CN([C@@H](C)CO)C(=O)c2cc(NC(=O)Nc3ccccc3)ccc2O[C@H]1CN(C)C(=O)Nc1cccc2ccccc12
- A1 apoptosis 2: -0.3
CC(C)NC(=O)Nc1ccc2c(c1)C(=O)N([C@@H](C)CO)C[C@@H](C)[C@@H](CN(C)C(=O)c1ccncc1)OCCCC[C@H](C)O2
- A1 apoptosis 2: 0.5
C[C@@H]1CN([C@@H](C)CO)C(=O)CCCn2nncc2CO[C@H]1CN(C)C(=O)C1CC1
- A1 apoptosis 2: -0.3
CC(C)NC(=O)Nc1ccc2c(c1)C(=O)N([C@@H](C)CO)C[C@@H](C)[C@@H](CN(C)C(=O)C1CCCCC1)OCCCC[C@@H](C)O2
- A1 apoptosis 2: 0.1
Cc1noc(C)c1NC(=O)N(C)C[C@H]1Oc2ccc(NS(=O)(=O)c3cccs3)cc2C(=O)N([C@H](C)CO)C[C@@H]1C
- A1 apoptosis 2: -0.3
COc1ccc(-c2cnc3c(c2)C(=O)N([C@H](C)CO)C[C@H](C)[C@H](CN(C)C(=O)Nc2ccccc2)O3)cc1
- A1 apoptosis 2: -1.5
C[C@H](CO)N1C[C@H](C)[C@@H](CN(C)CC2CC2)Oc2ccc(NS(=O)(=O)c3cccs3)cc2C1=O
- A1 apoptosis 2: -0.6
C[C@H](CO)N1C[C@H](C)[C@H](CN(C)Cc2ccc(C(=O)O)cc2)OCCCC[C@H](C)Oc2ccc(NS(=O)(=O)c3cn(C)cn3)cc2C1=O
- A1 apoptosis 2: 0.8
C=CC[C@]1(C(=O)NCCCOC)N=C(c2ccc(OCCCO)cc2)O[C@H]1c1ccccc1
- A1 apoptosis 2: -0.2
C[C@@H]1CN([C@@H](C)CO)C(=O)c2cccc(NC(=O)CCCCCC(=O)Nc3ccccc3N)c2O[C@H]1CN(C)C(=O)NC1CCCCC1
- A1 apoptosis 2: 0.2
C[C@H](CO)N1C[C@H](C)[C@H](CN(C)S(C)(=O)=O)Oc2c(NC(=O)c3nc4ccccc4s3)cccc2C1=O
- A1 apoptosis 2: -1.5
C[C@H]1CN([C@@H](C)CO)C(=O)Cc2cc(NC(=O)NC3CCCCC3)ccc2O[C@@H]1CN(C)S(=O)(=O)c1cn(C)cn1
- A1 apoptosis 2: 0.8
C[C@H]1CCCCO[C@@H](CN(C)C(=O)NC2CCCCC2)[C@@H](C)CN([C@@H](C)CO)C(=O)c2cc(NC(=O)NC3CCCCC3)ccc2O1
- A1 apoptosis 2: 0.2

Remaining list, next part.
Compound,A1 apoptosis 2
C[C@@H]1CN([C@@H](C)CO)C(=O)Cc2cc(NS(=O)(=O)c3ccc(F)cc3)ccc2O[C@H]1CN(C)S(=O)(=O)c1ccccc1,2.3
C[C@@H]1CN([C@H](C)CO)C(=O)c2cc(N(C)C)ccc2O[C@@H]1CN(C)S(C)(=O)=O,0.4
CNC[C@@H]1OCCCC[C@H](C)Oc2ccc(NC(=O)Nc3ccc(C(F)(F)F)cc3)cc2C(=O)N([C@H](C)CO)C[C@H]1C,-0.5
C[C@@H]1CN([C@@H](C)CO)C(=O)Cc2cc(NC(=O)Nc3ccc(F)cc3)ccc2O[C@@H]1CN(C)Cc1ccc(Cl)c(Cl)c1,0.1
C[C@@H]1CCCCO[C@H](CN(C)C(=O)Nc2ccccc2)[C@@H](C)CN([C@H](C)CO)C(=O)c2cc(NC(=O)Nc3ccccc3)ccc2O1,-0.8
C[C@H]1CN([C@@H](C)CO)C(=O)Cc2cc(NC(=O)Nc3ccc4c(c3)OCO4)ccc2O[C@@H]1CN(C)S(=O)(=O)c1ccc(Cl)cc1,0.3
COc1ccc(S(=O)(=O)N(C)C[C@@H]2Oc3ccc(NC(=O)Cn4cnnn4)cc3C(=O)N([C@H](C)CO)C[C@@H]2C)cc1,-0.5
C[C@@H]1CCCCO[C@@H](CN(C)C(=O)NC2CCCCC2)[C@H](C)CN([C@H](C)CO)C(=O)c2cc(NS(C)(=O)=O)ccc2O1,-0.3
CNC[C@H]1OCc2cnnn2CCCC(=O)N([C@@H](C)CO)C[C@@H]1C,-0.3
COc1ccc(S(=O)(=O)Nc2ccc3c(c2)C(=O)N([C@@H](C)CO)C[C@@H](C)[C@@H](CN(C)Cc2ccccc2)O3)cc1,0.0
C[C@@H]1CN([C@@H](C)CO)C(=O)c2cccc(NC(=O)c3cnccn3)c2O[C@@H]1CN(C)CC1CCCCC1,0.9
O=C(Nc1ccccc1)C1=C[C@H](c2ccc(Br)cc2)C[C@H](OCc2ccc(CO)cc2)O1,-1.4
CCO[C@@H]1OC(C(=O)N2CCOCC2)=C[C@H](C)[C@H]1CCCO,1.5
CNC[C@@H]1OCCCC[C@H](C)Oc2ccc(N(C)C)cc2C(=O)N([C@H](C)CO)C[C@H]1C,-0.2
C[C@H]1CCCCO[C@@H](CN(C)CC2CCCCC2)[C@@H](C)CN([C@@H](C)CO)C(=O)c2cc(NC(=O)Nc3ccc(F)cc3)ccc2O1,0.7
COc1ccc(COCC23N=C4SCc5ccccc5CN4[C@H](c4ccccc4O2)[C@H]3COC(=O)c2ccccc2)cc1,1.5
CCCNC(=O)[C@@]1(C)c2ccccc2C(=O)N(Cc2ccccc2)[C@H]1c1ccc(CO)cc1,0.0
COc1ccc(S(=O)(=O)Nc2cccc3c2O[C@@H](CN(C)S(=O)(=O)c2ccc(F)cc2)[C@H](C)CN([C@H](C)CO)C3=O)cc1,1.6
C[C@@H]1CN([C@@H](C)CO)C(=O)c2cc(NC(=O)Nc3ccccc3)ccc2O[C@@H]1CN(C)S(=O)(=O)c1cccs1,1.9
Cc1noc(C)c1S(=O)(=O)Nc1ccc2c(c1)C(=O)N([C@@H](C)CO)C[C@H](C)[C@H](CN(C)C(=O)NC(C)C)OCCCC[C@H](C)O2,0.7
CC(C)NC(=O)N(C)C[C@@H]1Oc2ccc(NC(=O)NC3CCCCC3)cc2CC(=O)N([C@@H](C)CO)C[C@H]1C,-0.6
C[C@H](CO)N1C[C@H](C)[C@@H](CN(C)S(=O)(=O)c2ccc(F)cc2)Oc2c(NS(=O)(=O)c3ccc(F)cc3)cccc2C1=O,-0.4
C[C@H](CO)N1C[C@H](C)[C@H](CN(C)Cc2ccc(C(=O)O)cc2)Oc2c(NC(=O)c3cnccn3)cccc2C1=O,-0.1
Cc1ccc(S(=O)(=O)N(C)C[C@@H]2Oc3ccc(NC(=O)Cn4cnnn4)cc3CC(=O)N([C@H](C)CO)C[C@@H]2C)cc1,0.1
C[C@@H]1CN([C@H](C)CO)C(=O)c2cc(NC(=O)NC3CCCCC3)ccc2O[C@H]1CN(C)C(=O)Nc1ccc2c(c1)OCO2,-0.3
COc1ccc(NC(=O)N(C)C[C@H]2Oc3c(NC(=O)Nc4cccc5ccccc45)cccc3C(=O)N([C@@H](C)CO)C[C@@H]2C)cc1,1.6
C[C@@H]1CN([C@H](C)CO)C(=O)Cc2cc(NC(=O)c3ccncc3)ccc2O[C@@H]1CN(C)Cc1ccccc1,0.2
C[C@@H]1CCCCO[C@H](CN(C)C(=O)Nc2ccc3c(c2)OCO3)[C@@H](C)CN([C@@H](C)CO)C(=O)c2cc(NC(=O)C3CCCCC3)ccc2O1,0.8
CNC[C@@H]1Oc2c(NC(=O)Nc3ccc(F)cc3)cccc2C(=O)N([C@@H](C)CO)C[C@@H]1C,1.0
C[C@H]1CN([C@@H](C)CO)C(=O)c2cc(N(C)C)ccc2O[C@H]1CN(C)Cc1ccc(C(F)(F)F)cc1,-2.4
C[C@@H]1CN([C@@H](C)CO)C(=O)c2cccc(NC(=O)Nc3ccc4c(c3)OCO4)c2O[C@H]1CN(C)Cc1ccc(C(=O)O)cc1,0.2
O=C(C1=C[C@H](C2CC2)C[C@H](OCCCCO)O1)N1CCN(Cc2ccc3c(c2)OCO3)CC1,-0.7
COc1ccc([Si](C)(C)[C@@H]2[C@@H](CCn3cc([C@H](O)c4ccccc4)nn3)O[C@]3(C(=O)N(Cc4cccc(N5CCOC5=O)c4)c4ccccc43)[C@H]2C)cc1,-0.6
COc1cccc(-c2cnc3c(c2)C(=O)N([C@H](C)CO)C[C@H](C)[C@H](CN(C)Cc2cccc(C)c2)O3)c1,1.0
C[C@@H]1CN([C@@H](C)CO)C(=O)c2cc(NC(=O)CCCCCC(=O)Nc3ccccc3N)ccc2O[C@H]1CN(C)Cc1ccc2c(c1)OCO2,1.4
COc1ccc(CN(C)C[C@@H]2OCCCC[C@@H](C)Oc3ccc(NC(=O)Nc4cccc5ccccc45)cc3C(=O)N([C@@H](C)CO)C[C@H]2C)cc1,-0.1
C[C@@H]1CCCCO[C@H](CN(C)C)[C@@H](C)CN([C@H](C)CO)C(=O)c2cc(NC(=O)Nc3ccc(C(F)(F)F)cc3)ccc2O1,-1.4
C[C@@H]1CN([C@@H](C)CO)C(=O)c2cc(NC(=O)CCCN(C)C)ccc2O[C@@H](C)CCCCO[C@H]1CN(C)S(=O)(=O)c1ccccc1,-0.4
C[C@H](CO)N1C[C@H](C)[C@@H](CN(C)C(=O)NC2CCCCC2)Oc2c(NC(=O)Nc3ccccc3)cccc2C1=O,0.3
CC(C)NC(=O)N(C)C[C@H]1Oc2c(NC(=O)C3CCOCC3)cccc2C(=O)N([C@H](C)CO)C[C@@H]1C,0.5
